PV pol inh – inhibitors of poliovirus RNA polymerase binding and polymerization; poliovirus polymerase elongation, fluorescence polarization; hits give low values; % elongation, % (compound at 16.7 µg/mL); AID 588519; P03300; 150,000 compounds, 0.66% hits; in the data active = % elongation below about 90%; also: some results filed as inactive read as strong as hits
Target sequence (P03300 1749-2209 limits assumed): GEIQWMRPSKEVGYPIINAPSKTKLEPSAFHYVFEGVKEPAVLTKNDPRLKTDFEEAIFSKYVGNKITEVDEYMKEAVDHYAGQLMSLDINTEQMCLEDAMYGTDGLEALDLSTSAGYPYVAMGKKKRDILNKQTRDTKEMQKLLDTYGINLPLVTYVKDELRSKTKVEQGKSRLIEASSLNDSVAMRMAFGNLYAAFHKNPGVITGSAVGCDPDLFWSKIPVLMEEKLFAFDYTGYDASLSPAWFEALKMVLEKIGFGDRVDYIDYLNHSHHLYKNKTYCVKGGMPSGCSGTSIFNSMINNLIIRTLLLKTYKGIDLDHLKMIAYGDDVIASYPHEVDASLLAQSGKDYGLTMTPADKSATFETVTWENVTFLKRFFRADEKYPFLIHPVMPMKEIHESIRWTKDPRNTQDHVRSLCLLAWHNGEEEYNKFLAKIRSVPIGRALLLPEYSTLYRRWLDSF
PV pol inh intensity – second read-out of PV pol inh, no call of its own (marks repeat the call); % elongation; measured here: total intensity read-out; formula for this scale not given here;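 total fluorescence in place of polarization; lower means less elongation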
Numbers without * were called inactive.

[1] Cc1nc2cc(-c3ccccc3)nn2c(C)c1CCC(=O)NCc1cccc(Cl)c1
[2] O=C1CC(c2cccc(F)c2)c2c(n3ncnc3[nH]c2=O)N1 (stereo unspecified)
[3] CCN(CC)CCCNC(=O)CCCn1c(=O)[nH]c2ccc(Br)cc2c1=O
[4] Cc1nc2c3ccccc3nc(NNC(=O)CCC(=O)N3CCN(c4ccc(F)cc4)CC3)n2n1
[5] O=C(CSc1nccn1-c1ccccc1)Nc1nc2ccccc2s1
[6] CCN1c2ccccc2-c2nc(SCC(=O)Nc3cccc(C(F)(F)F)c3)ncc2S1(=O)=O
[7] CCCN1C(=O)C(O)(CC(=O)c2ccc(C(C)C)cc2)c2ccccc21 (stereo unspecified)
[8] CCc1ccc(NC(=O)CSc2nc(=O)n(Cc3ccncc3)c3c2CCC3)cc1
[9] CC1CCN(S(=O)(=O)c2csc(C(N)=O)c2)CC1
[10] CCCN(CCC)S(=O)(=O)c1ccc(C(=O)Nc2sc3c(c2C(=O)OC)CCN(CC)C3)cc1
Assay by compound	1	2	3	4	5	6	7	8	9	10
PV pol inh	107.0	103.0	108.0	95.0	99.0	106.0	109.0	109.0	104.0	106.0
PV pol inh intensity	109.0	93.0	109.0	95.0	105.0	111.0	108.0	103.0	109.0	104.0

[11] O=C(CCC1N=C2c3ccccc3N=C(SCc3ccc(F)cc3)N2C1=O)NC1CCCCC1 (stereo unspecified)
[12] Cc1ccc(-c2cn3c(n2)sc2cc(C(=O)NCCCN4CCCCC4)ccc23)cc1
[13] CCOc1ccc(NC(=O)CCc2nnc3n(C)c(=O)c4sccc4n23)cc1
[14] Cc1cc(Nc2ccc(C(C)C)cc2)nc(-n2nc(C)cc2C)n1
[15] CCc1nn(CC(=O)N2CCCCC2)c(=O)c2cc3occc3n12
[16] COc1cccc(N2CC(NC(=O)c3ccc(S(=O)(=O)N4CCCC4)cc3)CC2=O)c1 (stereo unspecified)
[17] Cc1cc2ccccc2n1-c1ccc(C(=O)N2CCCCC2)s1
[18] CCOc1ccc(NC(=O)CSc2nnc3c(C)cc4ccccc4n23)cc1
[19] O=C(NCCc1ccccc1)C1CCC(CNS(=O)(=O)c2ccc(Cl)cc2)CC1 (stereo unspecified)
[20] Cc1ccc(-c2cc(C(=O)N3CCN(S(=O)(=O)c4ccc(Br)cc4)CC3)[nH]n2)cc1C
Assay by compound	11	12	13	14	15	16	17	18	19	20
PV pol inh	106.0	100.0	104.0	110.0	103.0	110.0	111.0	108.0	104.0	104.0
PV pol inh intensity	106.0	88.0	97.0	127.0	104.0	111.0	115.0	105.0	108.0	107.0

Entries by screen from above:
Entries 11 to 19 in PV pol inh intensity read 106.0, 88.0, 97.0, 127.0, 104.0, 111.0, 115.0, 105.0, 108.0
Entries 11 to 19 in PV pol inh read 106.0, 100.0, 104.0, 110.0, 103.0, 110.0, 111.0, 108.0, 104.0

The list continues:
[21] O=C(NCc1ccc(F)cc1)c1cc2n(n1)CCCN(Cc1ccc(F)cc1)C2=O
[22] COc1ccc(CCNC(=O)c2ccc3c(c2)CCN3S(=O)(=O)c2ccc(C)cc2)cc1OC
[23] COc1ccc2c(CNCc3cccs3)c(C(=O)O)n(Cc3ccccc3F)c2c1
[24] CCC(=O)N1CCc2cc(S(=O)(=O)CCC(=O)N(C)c3ccc(OC)cc3)ccc21
[25] O=C(CSc1n[nH]c(-c2ccccc2)n1)NCCc1ccccc1
[26] CN1C(=O)c2ccccc2Sc2ccc(NC(=O)NCc3cccc(Cl)c3)cc21
[27] O=C(c1ccccc1)N1CCC(c2nc3ccccc3o2)CC1
[28] CCc1cccc(NS(=O)(=O)c2ccc(-n3cccn3)cc2)c1
[29] O=C(NCCc1nc2ccccc2n1Cc1ccccc1)c1ccco1
[30] CCNC(=O)Cn1c(-c2cccs2)cc2ccccc21
Assay by compound	21	22	23	24	25	26	27	28	29	30
PV pol inh	105.0	104.0	110.0	107.0	112.0	111.0	109.0	102.0	105.0	103.0
PV pol inh intensity	107.0	103.0	118.0	108.0	107.0	111.0	101.0	106.0	92.0	107.0

[31] Cc1cc(NC(=O)C(C)(C)Oc2ccc(Cl)cc2)cc(-c2nc3ncccc3o2)c1O
[32] Cc1cccc(NC(=O)CSc2nc3c(oc4ccccc43)c(=O)n2-c2ccccc2)c1C
[33] Cc1ccc(C2=NN(CC(=O)NC(C)c3ccccc3)C(=O)CC2)cc1 (stereo unspecified)
[34] CCN(CC)c1ccc(NC(=O)c2sc3ccccc3c2Cl)cc1
[35] CCCCC(=O)Nc1nnc(S(=O)(=O)N(C)Cc2ccc(Cl)cc2)s1
[36] O=C(Nc1ccc(F)c(F)c1)C(c1ccccc1)N1Cc2ccccc2C1=O (stereo unspecified)
[37] CC(=O)N(Cc1cccnc1)c1nc2c(C)cccc2s1
[38] Cc1cccc(Nc2cc(C)nc(-n3nc(C)cc3C)n2)c1
[39] COc1cccc(Nc2ccc3cc(S(=O)(=O)N4CCC(C)CC4)ccc3n2)c1
[40] O=C1CC(c2ccc(F)cc2)c2c(n3c(nc4ccccc43)[nH]c2=O)N1 (stereo unspecified)
Assay by compound	31	32	33	34	35	36	37	38	39	40
PV pol inh	105.0	104.0	110.0	109.0	108.0	110.0	105.0	109.0	106.0	106.0
PV pol inh intensity	106.0	110.0	116.0	110.0	112.0	112.0	109.0	114.0	106.0	104.0

[41] CCOC(=O)c1c(-c2ccccc2)oc2ccc(NS(=O)(=O)c3ccc(C)cc3C)cc12
[42] COc1ccc(C2=C(C)C(=O)N(Cc3ccc(C(=O)Nc4cccc(F)c4)cc3)S2(=O)=O)cc1
[43] COc1cccc(CNC(=O)c2ccc3c(c2)N(Cc2ccc(F)cc2Cl)C(=O)c2ccccc2S3)c1
[44] COc1ccc(OC)c(NC(=O)c2cnc(N3CCCCC3)c3ccccc23)c1
[45] Cn1cc(S(=O)(=O)N2CCCCCC2)cc1C(=O)N1CCN(c2ccc(F)cc2)CC1
[46] Cc1ccccc1C(=O)N1CCC(c2nc3ccccc3s2)CC1
[47] COc1ccc(NC(=O)CN2C(=O)C(C)N=C(c3ccccc3F)c3cc(Cl)ccc32)c(OC)c1 (stereo unspecified)
[48] Cc1ccc(CSCCNC(=O)C2CCN(S(=O)(=O)Cc3ccccc3)CC2)cc1
[49] Cc1ccc(CNC(=O)CC2Oc3ccc(Cl)cc3NC2=O)cc1 (stereo unspecified)
[50] COc1cc(NC(=O)c2c3c(nc4ccccc24)C(=O)N(C2CCCCC2)C3)cc(OC)c1
Assay by compound	41	42	43	44	45	46	47	48	49	50
PV pol inh	108.0	108.0	108.0	110.0	105.0	112.0	108.0	104.0	104.0	110.0
PV pol inh intensity	107.0	116.0	109.0	100.0	111.0	111.0	114.0	95.0	104.0	103.0

Molecules listed so far that contain bromine:
[3] CCN(CC)CCCNC(=O)CCCn1c(=O)[nH]c2ccc(Br)cc2c1=O
[20] Cc1ccc(-c2cc(C(=O)N3CCN(S(=O)(=O)c4ccc(Br)cc4)CC3)[nH]n2)cc1C
Assay by compound	3	20
PV pol inh	108.0	104.0
PV pol inh intensity	109.0	107.0

Quoted at random: five compounds from above
[25] O=C(CSc1n[nH]c(-c2ccccc2)n1)NCCc1ccccc1
[19] O=C(NCCc1ccccc1)C1CCC(CNS(=O)(=O)c2ccc(Cl)cc2)CC1 (stereo unspecified)
[23] COc1ccc2c(CNCc3cccs3)c(C(=O)O)n(Cc3ccccc3F)c2c1
[27] O=C(c1ccccc1)N1CCC(c2nc3ccccc3o2)CC1
[28] CCc1cccc(NS(=O)(=O)c2ccc(-n3cccn3)cc2)c1
Assay by compound	25	19	23	27	28
PV pol inh	112.0	104.0	110.0	109.0	102.0
PV pol inh intensity	107.0	108.0	118.0	101.0	106.0

The results go on:
[51] Cc1cc(Nc2sc(C(=O)c3ccc(F)cc3)c(N)c2C(=O)Nc2ccc(F)cc2)ccc1Cl
[52] O=C(CN1C(=O)COc2ccc(Cl)cc21)Nc1cccc(F)c1
[53] Cc1ccc(N(CC(=O)N2CCN(c3ccc(F)cc3)CC2)S(=O)(=O)c2c(C)noc2C)cc1
[54] O=C(Cn1c(=O)oc2cc(S(=O)(=O)N3CCCCCC3)ccc21)Nc1cccc(C(F)(F)F)c1
[55] CCCN(CCC)CCCNC(=O)Cn1ncn2c(cc3sc(CC)cc32)c1=O
[56] O=C(Nc1ccc(O)c(-c2nc3ccccc3o2)c1)c1ccco1
[57] O=C(Nc1nnc(-c2cc(Cl)ccc2Cl)o1)c1ccc2c(c1)OCCO2
[58] O=C(CNC(=O)c1ccccc1)OCc1cc(=O)n2nc(C3CCCCC3)sc2n1
[59] CC(=O)NCCn1c(SCC(=O)Nc2ccc(C)cc2)nc2ccccc2c1=O
[60] COc1ccc(Cl)cc1NC(=O)CSc1nccn1-c1ccc(Cl)cc1
Assay by compound	51	52	53	54	55	56	57	58	59	60
PV pol inh	115.0	107.0	111.0	106.0	100.0	106.0	109.0	114.0	107.0	112.0
PV pol inh intensity	115.0	108.0	109.0	100.0	102.0	107.0	117.0	111.0	103.0	107.0

[61] CCOc1ccccc1NC(=O)NCc1noc2ccc(C)cc12
[62] Cc1ccc(CCNC(=O)CCn2nc(-c3ccccc3)ccc2=O)cc1
[63] CC(CCc1ccccc1)NC(=O)Cn1ncc2c3ccccc3n(Cc3ccccc3)c2c1=O (stereo unspecified)
[64] CCc1nc(Oc2cccc(F)c2)c2oc3ccccc3c2n1
[65] COc1ccc(Cl)cc1NC(=O)Cn1cnc2sc(C)c(S(=O)(=O)N3CCN(c4ccccc4OC)CC3)c2c1=O
[66] Cc1nc2ccccc2n1CCc1nc2c3ccccc3nc(SCc3cccc(F)c3)n2n1
[67] CN(C)c1ccc(C2CC(c3c(O)n(C4CCCCC4)c(=O)[nH]c3=O)=Nc3ccccc3S2)cc1 (stereo unspecified)
[68] CCOc1ccc(-c2cc(C(=O)NCc3ccc(OCC)c(OC)c3)[nH]n2)cc1
[69] CCCNC(=O)C(CC)n1nc(CC)n2c(cc3oc(C)cc32)c1=O (stereo unspecified)
[70] COc1cc(OC)cc(-c2nc3nc(C)c(CCC(=O)NCCC(C)C)c(C)n3n2)c1
Assay by compound	61	62	63	64	65	66	67	68	69	70
PV pol inh	111.0	106.0	103.0	113.0	104.0	109.0	153.0	108.0	104.0	106.0
PV pol inh intensity	106.0	106.0	104.0	118.0	109.0	107.0	203.0	106.0	102.0	107.0

Record cards, from the list above. Order of screens: PV pol inh	PV pol inh intensity
CCCNC(=O)C(CC)n1nc(CC)n2c(cc3oc(C)cc32)c1=O (stereo unspecified) as listed: 104.0	102.0
CN(C)c1ccc(C2CC(c3c(O)n(C4CCCCC4)c(=O)[nH]c3=O)=Nc3ccccc3S2)cc1 (stereo unspecified) as listed: 153.0	203.0

Continuation:
[71] CCC1CCc2nc3sc(C(=O)Nc4ccc(F)cc4F)c(N)c3cc2C1 (stereo unspecified)
[72] CC1CCN(C(=O)c2cc(-c3ccc(Br)cc3)on2)CC1
[73] Cc1cc(=O)c2cc(C(=O)Nc3cccc(C)c3C)ccc2[nH]1
[74] COc1ccc(NC(=O)CCSc2nc(-c3ccco3)cc(C(F)(F)F)n2)cc1OC
[75] Cc1ccc(NC(=O)CCc2nc3cccnc3n2-c2ccccc2)cc1
[76] Cn1cc(S(=O)(=O)N2CCCC2)cc1C(=O)Nc1ccc(F)cc1F
[77] Cc1cccc(Cn2cccc(C(=O)Nc3nnc(C)s3)c2=O)c1
[78] Cc1ccc(N(CC(C)C)S(=O)(=O)c2nnc(NC(=O)c3ccco3)s2)cc1
[79] COc1ccc(C)cc1Nc1nc2c(S(=O)(=O)c3cc(C)ccc3C)nnn2c2ccsc12
[80] COc1ccc(OC)c(NC(=O)CSC2=Nc3ccccc3C3=NC(CC(=O)NCCc4ccccc4)C(=O)N23)c1 (stereo unspecified)
Assay by compound	71	72	73	74	75	76	77	78	79	80
PV pol inh	109.0	100.0	103.0	104.0	108.0	106.0	103.0	111.0	107.0	104.0
PV pol inh intensity	117.0	100.0	111.0	106.0	114.0	103.0	101.0	116.0	112.0	102.0

[81] COc1c(Cl)cc(C(=O)N(Cc2ccc(C)o2)C2CCS(=O)(=O)C2)cc1Cl (stereo unspecified)
[82] Cc1ccc2c(=O)c(C(=O)c3ccc(F)cc3)cn(CC(=O)NCc3ccccc3Cl)c2n1
[83] Cc1cccc(-n2c3nc(=O)n(C)c(=O)c-3cc3c(C)nn(-c4ccccc4)c32)c1C
[84] CCOc1ccc(-c2cn3c(n2)sc2cc(C(=O)NCCCN4CCCCCC4)ccc23)cc1
[85] O=C(Cn1ccc2cc(S(=O)(=O)N3CCCCC3)ccc21)NCCc1ccc(Cl)cc1
[86] O=C(Cn1ncc2c3ccccc3n(Cc3ccccc3F)c2c1=O)N1CCCCC1
[87] COc1ccc(-c2cc(C(F)(F)F)nc(SCCC(=O)Nc3cc(C)ccc3O)n2)cc1
[88] CCOC(=O)c1c(-c2ccc(Br)cc2)csc1NC(=O)c1ccc(C(C)(C)C)cc1
[89] COc1cc(C(=O)Nc2cc(C)ccc2OCc2cc(=O)n3c(C)csc3n2)cc(OC)c1OC
[90] CCN(CC)c1nn2c(=O)c(C(=O)NCCc3ccccc3C)cnc2s1
[91] Cc1ccccc1Cn1c(C)c(CNCCCc2ccccc2)c(C(=O)O)c1C
Assay by compound	81	82	83	84	85	86	87	88	89	90	91
PV pol inh	114.0	121.0	113.0	98.0	102.0	113.0	109.0	102.0	103.0	96.0	107.0
PV pol inh intensity	115.0	121.0	114.0	91.0	107.0	109.0	110.0	106.0	103.0	94.0	108.0

Screening results as filed in PubChem.

Not all compounds are listed; rates above refer to the full screens.
